High-throughput results from PubChem.
Arbovirus anti: antivirals against arbovirus infection, primary screen, cell-based, full library, 10K replicate subset; arbovirus infection cell-based antiviral screen; AID 1251, 2008; 200,000 tested, 0.37% active; inhibition, % at 10 µM;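 active means inhibition from about 30%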;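 further: bluetongue infection of BSR cells; cell survival read as ATP light after 72 h; 0% = infected wells without compound and 100% = uninfected wells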
Mtb bLac sens: beta-lactam sensitization of Mtb H37Rv, H37Rv; M. tuberculosis H37Rv growth with meropenem, percent inhibition; hits of this screen are not shown here; 330,000 tested, 0.27% active; inhibition, % at 25 µM;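 active means about 74% or more and at least 40 points above the plate without the antibiotic, then above 30% in a dose series; inconclusive means first-round hits that could not be retested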;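 further: growth measured after seven days incubation then overnight dye step; 0% = bacteria only wells and 100% = bacteria with antibiotic; twin plates without the antibiotic show which effects depend on it; some results filed as inactive read as strong as hits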
YopH PTP inh: YopH tyrosine phosphatase inhibitors, primary screen, biochemical, fluorescence Ex485/Em525; YopH tyrosine phosphatase [Yersinia enterocolitica]; inhibition, %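 (about 10 µM by stock and volumes)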; 140,000 tested, 0.16% active; AID 898, 2007;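 active means inhibition of 50% or more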;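 further: controls were vehicle for no effect and minimum signal wells for full effect; inactives centre near -20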
Mtb growth: M. tuberculosis H37Rv growth inhibitors, H37Rv strain (AID 1626); M. tuberculosis H37Rv growth inhibition; higher % means a stronger effect; 220,000 tested, 0.95% active; one-dose inhibition, % at 10 µM; IC50 in µM for titrated hits;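 active means confirmed in a dose series; inconclusive means inhibition above 80% but not taken into the dose series; inactive means below 80% or under 30% at every dose of the series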;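 further: bacteria incubated seven days before Alamar blue readout; 0% = bacteria only wells and 100% = bacteria with antibiotic wells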
RecA intein inh: Mtb RecA intein splicing inhibitors, primary screen, biochemical, fluorescence, HTS; cell-free RecA intein splicing; Protein RecA (Mycobacterium tuberculosis (strain ATCC 25618 / H37Rv)), P9WHJ3; inhibition, %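 (about 9 µM by stock and volumes)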; 290,000 tested, 0.75% active; AID 2221, 2009; in the data active means inhibition above about 30%; inconclusive means no clear call, values can overlap the other calls;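 further: 0% = vehicle wells and 100% = reference inhibitor control wells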
Target sequence (P9WHJ3 whole entry, looked up): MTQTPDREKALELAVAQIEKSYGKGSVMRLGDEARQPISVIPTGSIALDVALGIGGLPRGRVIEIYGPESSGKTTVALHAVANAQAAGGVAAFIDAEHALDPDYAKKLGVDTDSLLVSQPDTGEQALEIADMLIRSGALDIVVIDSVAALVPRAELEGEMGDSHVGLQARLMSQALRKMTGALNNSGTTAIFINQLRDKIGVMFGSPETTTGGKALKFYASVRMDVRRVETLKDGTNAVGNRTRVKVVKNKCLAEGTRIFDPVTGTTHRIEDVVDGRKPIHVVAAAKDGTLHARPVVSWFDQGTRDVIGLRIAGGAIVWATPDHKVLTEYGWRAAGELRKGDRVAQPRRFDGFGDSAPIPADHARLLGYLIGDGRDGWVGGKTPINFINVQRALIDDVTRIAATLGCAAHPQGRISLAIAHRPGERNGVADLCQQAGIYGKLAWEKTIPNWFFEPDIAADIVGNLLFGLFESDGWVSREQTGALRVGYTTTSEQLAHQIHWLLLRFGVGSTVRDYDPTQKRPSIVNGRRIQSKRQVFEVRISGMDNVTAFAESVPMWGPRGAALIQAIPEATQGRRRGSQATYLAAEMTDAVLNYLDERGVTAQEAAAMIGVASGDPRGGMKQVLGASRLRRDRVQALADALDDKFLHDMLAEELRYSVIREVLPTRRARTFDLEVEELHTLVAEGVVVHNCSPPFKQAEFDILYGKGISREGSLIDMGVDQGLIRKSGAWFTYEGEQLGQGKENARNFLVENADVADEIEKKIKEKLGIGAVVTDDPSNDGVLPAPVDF
Arbovirus anti repeat: second read-out of Arbovirus anti, no call of its own (marks repeat the call); inhibition, %; measured here: 10K subset replicate screen; many hits read low in the repeat;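 first of two repeat runs on a subset; 0% = infected and 100% = uninfected wells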
Active calls of the source: *; u = inconclusive; x = not tested or not shown. Not all compounds are listed; count on the stated rates, not on these rows.

SMILES | Arbovirus anti | Mtb bLac sens | YopH PTP inh | Mtb growth | RecA intein inh | others
CC[n+]1ccc(/C=C2\Sc3ccccc3N2CCCS(=O)(=O)[O-])c2ccccc21 | 7 | -1 | x | 3% | -1.6
c1ccc(-c2cnnc(N3CCCCC3)n2)cc1 | -5 | 44 | -45 | -7% | 0.6 | Arbovirus anti repeat=-4
O=C(NCC(=O)N(Cc1ccccc1)C(C(=O)NC1CCCC1)c1ccncc1)c1ccco1 (configuration not stated) | 4 | -6 | -13 | 0% | 3.5
CC(OC(=O)C1CCCCC1)c1nc2ccccc2[nH]1 (configuration not stated) | -4 | -4 | -26 | -4% | 1.9
Cn1c(SCc2ccc(Cl)cc2)nnc1-c1ccc2nonc2c1 | x | 2 | x | -3% | -3.4
CCCCCN(C(=O)CCC(=O)OCc1ccccc1C)c1c(N)n(CCCC)c(=O)[nH]c1=O | x | -4 | x | x | -0.8
COc1ccc2c(c1)c1ncn(CCN3CCNCC3)c(=O)c1n2C | -5 | -6 | -6 | -1% | -4.4
Cc1cc(-c2ccc(Br)s2)nc(-n2cccc2)n1 | 24 | x | x | 14% | 2.4
CC(=O)CCc1ccc(OC(=O)c2cccnc2)cc1 | -12 | -2 | -18 | 12% | 3.5
O=C(NCc1cccc(OC(F)(F)F)c1)C1CCC(=O)N(Cc2cccc(F)c2)C1 (configuration not stated) | x | 8 | x | x | 1.7
CC(=O)OC(C(=O)n1nc(C)cc1C)c1ccccc1 (configuration not stated) | 7 | -5 | -1 | -6% | -1.4
CCN(c1ccc(OC)cc1)S(=O)(=O)c1nnc(NC(=O)c2ccccc2Cl)s1 | x | -2 | x | x | 1.3
O=c1cc(CSc2ccc(Cl)cc2)nc(-c2ccncc2)[nH]1 | 4 | -4 | x | 31% | -1.9
CSCCC(NC(=O)CCC(=O)OC1CC[C@H]2[C@@H]3CC[C@H]4CC(=O)CC[C@]4(C)[C@H]3CC[C@]12C)C(=O)O (some centres not stated) | x | u | x | x | -1.2
CSc1nc2ccc(S(=O)(=O)NC3CCCCC3)cc2s1 | 17 | 38 | -16 | x | -1.2
S=C1SCN(Cc2ccco2)CN1Cc1ccco1 | x | 98 | x | 1% | -4.3
Cc1c(C(=O)OC2CCCCC2)[nH]c2c1C(=O)CC(C)(C)C2 | 3 | 3 | 2 | 4% | 2.1
COc1cccc(C(=O)COC(=O)CCCC(=O)NC2CCCCC2)c1 | x | u | x | x | 1.6
COc1c(C)cc(Br)cc1C(=O)Nc1ccccc1N1CCN(C(=O)c2ccccc2)CC1 | -11 | 25 | x | 20% | 12
Cc1ccc(S(=O)(=O)/N=C(\Nc2cccc(C)c2)Nc2nc(C)cc(C)n2)cc1 | -9 | 2 | -7 | 6% | 2.5
Cc1nc2ncnn2c(C)c1Cc1ccc(Cl)cc1 | -7 | -5 | -20 | -5% | 0.8
CCc1ccccc1NC(=S)N(CCCN1CCOCC1)Cc1ccccn1 | 1 | u | 3 | 4% | 0.8
O=C(O)CCn1c(-c2ccccn2)nc2ccccc21 | x | 2 | x | x | -1.1
CCOC(=O)c1c(NC(C)=O)sc2c(OCCN(CC)CC)c(Br)ccc12 | -33 | 13 | x | 61% | -2.8
CCN1CCN(C(=S)Nc2ccc3nc(N4CCN(CC)CC4)cc(C)c3c2)CC1 | 0 | -4 | -8 | 1% | -3.4
CCC(C)NC(=S)Nc1ccccc1 (configuration not stated) | x | x | x | 1% | 0.3
O=C(Nc1ccccc1CC[N+](=O)[O-])N1CCN(c2ccccc2)CC1 | -5 | 0 | x | -9% | 1.2
Cc1ccc(OC(C)C(=O)Nc2ccc(S(=O)(=O)Nc3nccs3)cc2)cc1 (configuration not stated) | x | 8 | x | x | 2.4
Cc1cccc(-c2nc(CSc3nc4c(c(=O)[nH]3)CCC4)c(C)o2)c1 | -26 | -6 | -21 | x | -2.8
COc1cc(OC)c(C(=O)OCCCOC(=O)c2cc(OC)c(OC)cc2OC)cc1OC | x | -2 | x | x | -1.2
Cc1cc(C(=O)N2CCN(C(=O)C3CCCO3)CC2)no1 (configuration not stated) | -1 | x | -5 | -5% | -2.9
COc1ccc(Cl)c(Cn2c(NCc3ccco3)nc3c2c(=O)n(C)c(=O)n3C)c1 | 2 | 8 | 36 | 4% | x
COc1ccc2c(c1)CC(C1(O)C(=O)Nc3ccccc31)C2=O (configuration not stated) | 4 | 0 | -1 | -5% | 3.3
COc1ccc(OC)c(N(CC(=O)Nc2ccccc2)S(=O)(=O)c2ccccc2)c1 | x | 1 | x | x | -0.8
CCOC(=O)c1cc2sc(C)cc2n1CC(=O)N1CCc2ccccc21 | -1 | 0 | -9 | 0% | -4.8
CCC(=O)N1CCCn2c1nc1ccccc12 | 3 | 4 | -21 | 11% | -1.8
O=C(COC(=O)C1C2CC3OC(=O)C1C3C2)Nc1ccc(Br)cc1 (configuration not stated) | x | -6 | x | x | 0.8
COc1ccc(C(=O)NC(=S)Nc2ccc(N3CCN(C(C)=O)CC3)cc2)cc1[N+](=O)[O-] | x | 0 | x | 7% | -1.6
COc1ccc(N2CCCC2)c(NC(=O)c2ccc([N+](=O)[O-])o2)c1 | x | 100 | x | x | -2.3
CCOC(=O)c1[nH]c(C)c(CN(CCc2ccccc2)S(C)(=O)=O)c1C | 0 | 1 | -22 | -2% | 0.3
O=C(COc1ccc2ccc(=O)oc2c1)NCCc1c[nH]c2ccc(F)cc12 | x | 1 | x | x | -1.4
CCCCn1c(=O)[nH]c(=O)c2c1nc(-c1ccc([N+](=O)[O-])cc1)n2CC | x | 0 | x | x | 0.5
Cc1ccc(/C=[N+](/C)[O-])cc1 | 1 | 0 | x | 5% | 0.0
NC(=O)c1nsc(C(=O)N(c2ccccc2)C(C(=O)NCc2ccc(F)cc2)c2ccco2)c1N (configuration not stated) | x | -5 | x | x | -3.7
COc1ccc(-c2ncncc2-c2csc(C)n2)c(O)c1 | 3 | -9 | -8 | -2% | 1.7
O=C(CCNC(=O)N1CC(=O)Nc2ccccc21)NCCc1cccc(F)c1 | x | -1 | x | x | -68
O=C(Nc1ccccc1C(F)(F)F)C1CCCC1 | x | -5 | x | x | 1.2
COC(=O)[C@@H](NC(=O)O[C@@H]1C(=O)c2cc(Br)ccc2O[C@H]1c1cccc(OC)c1)C(C)C | 5 | -3 | -17 | x | 8.2
CCOc1ccccc1CNC(=O)c1ccc(NC(=O)C2=CSCCO2)cc1 | x | 50 | x | x | -1.9
Cn1c(SCC(=O)NCc2ccc3c(c2)OCO3)nc2scc(-c3cccs3)c2c1=O | -4 | -4 | -22 | -8% | 1.0
COc1ccc(Cn2c(S(=O)(=O)CC(N)=O)nc3ccccc32)cc1[N+](=O)[O-] | 7 | -4 | x | -3% | 0.6
Cc1cccc(N(Cc2cc3ccccc3[nH]c2=O)S(C)(=O)=O)c1 | 10 | -4 | x | -5% | 1.4
CCOC(=O)C1CCN(S(=O)(=O)Cc2ccccc2)CC1 | 2 | 0 | -3 | -1% | 2.3
O=C(Nc1ccn(Cc2c(F)c(F)cc(F)c2F)n1)c1ccc(COc2ccc(Cl)cc2Cl)o1 | -11 | -2 | -4 | 4% | 5.3
COCCCN=C1NN=C(c2cc(C)n(-c3ccccc3)c2C)CS1 | 3 | -1 | -19 | -3% | 5.5
CCOC(=O)C(CCCOc1cccc(OC)c1)C(=O)OCC | -2 | 98 | -30 | 4% | 4.2
Cc1ccccc1NC(=O)c1ccc2c(c1)C(=O)N(CCC(C)C)C2=O | 15 | 60 | 4 | 35% | -4.1
CCOC(=O)C1CCN(C(=O)c2sc3nc(C)nc(N4CCC(C)CC4)c3c2C)CC1 | -7 | x | -23 | 7% | 4.8
O=c1cc(O)c2c(=O)n(C3CCCCC3)c3ccccc3c2o1 | 6 | 5 | -12 | -5% | -1.5
CN(C)CCCNC(=O)C(=O)NCC1OCCN1S(=O)(=O)c1cccs1 (configuration not stated) | x | -1 | x | x | -0.7
(further entries)
SMILES | Arbovirus anti | Mtb bLac sens | YopH PTP inh | Mtb growth | RecA intein inh | others
COc1ccc(NC(=O)CSCC(=O)Nc2cc(Cl)ccc2N2CCCC2)cc1 | x | 0 | x | x | -8.3
CCCCCCc1ccc(N2C[C@H](CCCCC)[C@@H](CC(=O)NCc3ccc(OC)cc3)C2=O)cc1 | x | -10 | x | x | 0.4
CN(Cc1ccccc1)C(=O)COC(=O)/C=C/c1ccco1 | -5 | 34 | x | -13% | 0.1
COc1ccc(CN2CCNC(=O)C2CC(=O)NCc2cn3ccc(C)cc3n2)c(OC)c1 (configuration not stated) | -1 | 2 | x | 7% | -0.6
Nc1nc(O)c(CC(=O)O)s1 | x | -2 | x | -2% | -1.2
CC#CC(=O)NCC1(N(C)Cc2ccccc2)Cc2ccccc2C1 | x | 5 | x | x | 2.5
CC1(C)CC(=O)C(C=NCc2cccnc2)=C(O)C1 | 4 | 0 | -40 | 1% | -2.4 | Arbovirus anti repeat=4
O=C(/C=C/c1ccncc1)c1ccc2c(c1)OCCO2 | -38 | 93 | x | 7% | 5.8
O=C(CSc1ccc2nnc(-c3ccccn3)n2n1)Nc1nccs1 | 5 | -10 | x | -5% | 4.6
O=C(c1ccc(CNc2c(N3CCCC3)c(=O)c2=O)cc1)N1CC=C(c2ccccc2)CC1 | x | 100 | x | 26µM* | -10
CN(C)C(=S)N=Nc1[nH]c2ccccc2c1O | -12 | -5 | x | 1% | 59*
CCSc1nnc2ccc(-c3ccc(C)cc3)nn12 | x | -7 | x | x | -0.1
CC[C@@]12C(=O)N(c3ccccc3)C(=O)N1[C@H](c1ccc(OC)cc1)[C@@H]1C(=O)N(C(C)(C)C)C(=O)[C@@H]12 | x | -6 | x | x | -0.4
O=C(NCCOCc1ccc(Cl)cc1)c1ncn[nH]1 | -6 | -3 | -21 | 4% | -1.8
O=C(CN(Cc1ccccc1)C(=O)CNS(=O)(=O)c1ccc(Cl)cc1)NCC1CCCO1 (configuration not stated) | x | -8 | x | x | 0.0
Cc1ccc(NC(=O)c2ccccc2N(C)S(C)(=O)=O)cc1C | 1 | u | -30 | -4% | 0.3
Cc1ccc2nc(N3CCN(S(=O)(=O)c4ccc5c(c4)OCCO5)CC3)c(C#N)cc2c1 | 12 | -9 | -8 | 2% | 5.0
NS(=O)(=O)c1cccc(NC(=S)NCc2ccc3c(c2)OCO3)c1 | 5 | -6 | x | -7% | -1.1
O=C(NN=C1CCCCCC1)c1c[nH]c2ccccc12 | -5 | 3 | -24 | -2% | -7.2
CCCC/C(C)=N/NC(=O)NC1CCCCC1 | -2 | -3 | -13 | -3% | -5.6
Cc1cc(C)cc(NC(=O)CN2CCN(CCN=CC3=C(O)CC(c4ccc(Cl)cc4)CC3=O)CC2)c1 (configuration not stated) | 6 | 3 | x | 4% | 2.8
CS(=O)(=O)N(CC(=O)Nc1ccccc1-c1ccccc1)c1cccc(F)c1 | 2 | 2 | x | -3% | 1.4
O=C(CN1C(=O)CSc2ccc(S(=O)(=O)N3CCOCC3)cc21)NCc1ccc(Cl)cc1 | x | -4 | x | x | 0.7
COc1ccc(S(=O)(=O)N2CCc3ccccc3C2)cc1C(=O)O | x | -2 | x | x | 0.9
COc1ccc(OCCCC(=O)Nc2nc(C)c(C(C)=O)s2)cc1 | -17 | 0 | x | 2% | -1.7
N#C/C(=C\c1cccc(O)c1)C(=O)Nc1ccc2c(c1)OCCO2 | x | 0 | x | -10% | 0.6
Cc1nc2cc(C(F)(F)F)ccc2n1C1CCN(CC(=O)N2CCCC2)CC1 | 4 | 5 | x | 6% | 1.5

Among those listed so far, 6 contain a thiophene ring, fused or not:
SMILES | Arbovirus anti | Mtb bLac sens | YopH PTP inh | Mtb growth | RecA intein inh | others
Cc1cc(-c2ccc(Br)s2)nc(-n2cccc2)n1 | 24 | x | x | 14% | 2.4
CCOC(=O)c1c(NC(C)=O)sc2c(OCCN(CC)CC)c(Br)ccc12 | -33 | 13 | x | 61% | -2.8
CCOC(=O)c1cc2sc(C)cc2n1CC(=O)N1CCc2ccccc21 | -1 | 0 | -9 | 0% | -4.8
Cn1c(SCC(=O)NCc2ccc3c(c2)OCO3)nc2scc(-c3cccs3)c2c1=O | -4 | -4 | -22 | -8% | 1.0
CCOC(=O)C1CCN(C(=O)c2sc3nc(C)nc(N4CCC(C)CC4)c3c2C)CC1 | -7 | x | -23 | 7% | 4.8
CN(C)CCCNC(=O)C(=O)NCC1OCCN1S(=O)(=O)c1cccs1 (configuration not stated) | x | -1 | x | x | -0.7
